High-throughput results deposited in PubChem by National Center for Advancing Translational Sciences (NCATS).
hNpr1 antagonist: blocks ANP-stimulated signaling of human Npr1 receptor. Potency, µM (top dose mostly 46.3 µM), for the others: at the highest dose activity change, negative = inhibition, hits mostly inhibitors. P16066. 76,000 compounds, 1.6% hits. HEK293 hNpr1 GloSensor cGMP, ANP-stimulated luminescence. AID 1347048; active = well fitted inhibition curve with a large enough effect; inconclusive = small, poorly fitted or top-dose-only effect; inactive = no such curve, though single readings can be large or run the other way;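 also: nearly all actives have a fitted effect of over 60% in size; nearly all hits also lower the signal before the agonist is added; a reference antagonist and vehicle were the controls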
Target sequence (P16066 whole entry, looked up): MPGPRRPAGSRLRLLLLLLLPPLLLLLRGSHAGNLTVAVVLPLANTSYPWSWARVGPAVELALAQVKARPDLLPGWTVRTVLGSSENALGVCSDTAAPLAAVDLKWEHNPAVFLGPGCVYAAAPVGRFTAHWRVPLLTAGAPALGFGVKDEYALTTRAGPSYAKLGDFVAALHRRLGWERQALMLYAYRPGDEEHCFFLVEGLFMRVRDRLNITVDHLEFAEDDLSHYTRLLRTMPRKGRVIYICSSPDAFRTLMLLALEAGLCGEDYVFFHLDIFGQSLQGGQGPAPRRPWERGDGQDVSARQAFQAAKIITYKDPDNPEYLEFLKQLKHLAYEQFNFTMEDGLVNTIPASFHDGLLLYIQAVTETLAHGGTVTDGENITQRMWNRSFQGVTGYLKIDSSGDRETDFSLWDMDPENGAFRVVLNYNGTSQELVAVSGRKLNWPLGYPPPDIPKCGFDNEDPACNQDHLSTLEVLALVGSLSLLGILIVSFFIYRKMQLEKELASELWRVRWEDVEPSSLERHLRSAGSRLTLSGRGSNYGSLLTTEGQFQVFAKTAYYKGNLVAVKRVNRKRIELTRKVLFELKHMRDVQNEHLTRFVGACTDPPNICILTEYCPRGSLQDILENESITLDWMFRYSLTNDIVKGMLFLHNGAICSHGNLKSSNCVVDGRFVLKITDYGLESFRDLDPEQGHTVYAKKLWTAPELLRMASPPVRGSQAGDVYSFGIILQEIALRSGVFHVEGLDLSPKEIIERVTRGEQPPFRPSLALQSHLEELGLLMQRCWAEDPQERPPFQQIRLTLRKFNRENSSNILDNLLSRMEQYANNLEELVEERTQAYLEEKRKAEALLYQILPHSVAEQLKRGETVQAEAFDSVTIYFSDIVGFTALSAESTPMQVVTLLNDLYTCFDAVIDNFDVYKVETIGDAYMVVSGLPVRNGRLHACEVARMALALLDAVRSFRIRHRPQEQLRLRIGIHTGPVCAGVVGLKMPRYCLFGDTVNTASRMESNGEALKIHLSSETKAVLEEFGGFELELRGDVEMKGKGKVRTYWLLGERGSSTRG
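Compound pre-incubated 30 min at room temperature on GloSensor-loaded HEK293 cells stably carrying hNpr1 and the pGS-40F cGMP biosensor. Stimulation uses hNppA at 0.1 nM final; luminescence is taken at baseline and 20 min post-agonist.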
An asterisk follows results filed as active; ? = inconclusive; [ ] = remark or other dose. % is scaled to controls: 0 for no effect and ±100 for the full control effect; potency is read from the fitted curve at half-maximal effect. Some of the compounds tested, so the mix of outcomes need not match the whole.

SMILES | hNpr1 antagonist
O=C(NC1CCCc2c1cnn2-c1ccc(F)cc1F)c1c(F)cccc1Cl (stereo not drawn) | ?
COCC1CN(C)CC12CCN(C(=O)COc1cccc(C)c1)CC2 (stereo not drawn) | -14%
O=C(CO[C@H]1CN(Cc2ccc(C(=O)O)cc2)C[C@H]1F)Nc1ccccc1O | 8%[70.6 µM]
CC(C)Oc1ccc(CNC(=O)C2(Cc3cccnc3)CCCCC(=O)N2)cc1 (stereo not drawn) | 1%
COc1ccc(-c2noc([C@@H]3CCCN3C(=O)c3ccccc3Cl)n2)cc1OC | -1%
CCOc1ccccc1CN1CC(CO)C2(CCNCC2)C1 (stereo not drawn) | 4%
CNC(=O)N1CCC(C2CCN(C(=O)Cc3ccc(OC)c(Cl)c3)C2)CC1 (stereo not drawn) | -7%
CNC(=O)N1CCC(C2CCN(S(=O)(=O)c3ccc(F)cc3)C2)CC1 (stereo not drawn) | 4%
O=C(c1ccccc1F)N1CCCC2(CC(c3cccc(C(F)(F)F)c3)=NO2)C1 (stereo not drawn) | 2%
O=C(c1ccc2c(c1)OCO2)N1CCCN(c2cc(-c3ccc(Br)cc3)[nH]n2)CC1 | 18µM*
O=S(=O)(NC[C@H]1O[C@@H](CO)[C@@H](O)[C@H]1N1CCN(c2ccccn2)CC1)c1ccc(Cl)cc1 | -1%
O=c1[nH]nc2n1CCN(C1CCSCC1)CC2 | 2%
Cc1ccccc1C(=O)NC1CCCN(c2cc(-c3ccc(F)cc3)[nH]n2)C1 (stereo not drawn) | 2%
O=C(NCCOc1ccccc1)c1cnc2c(c1)N(C(=O)Cc1ccc(O)cc1)CCC2 | 2%[70.6 µM]
O=C1NCCN(Cc2ccoc2)C1CC(=O)N(CCO)Cc1ccccc1F (stereo not drawn) | 3%
CCn1nc(CC(C)C)cc1C(=O)N1C[C@@H](NC(C)=O)[C@H](C(C)C)C1 | -1%
COc1ccc([C@@H](NC(=O)c2scc3c2CCCC3)C2CC(O)C2)cn1 (stereo partly drawn) | -12%
COc1ccc(C(=O)N[C@@H]2CCC[C@@H]2C(=O)NCc2ccc(OC(C)C)cc2)cc1 | 5%
CCOc1ccccc1C(=O)N1CCc2cn(C)c3cccc(c23)C1 | 0%
O=C(NCC1CC1)c1cccc(OC2CN(Cc3cccc(F)c3)C2)c1 | -10%
COc1ccc(-c2nc3c(c(-c4ccccc4)n2)CN(C(=O)C(C)(C)C)CC3)cc1 | 2%
COc1cc2c(cc1OC)CN(Cc1cc3n(n1)CCCNC3)CC2 | 4%
O=C(C1CCCCCC1)N1CCC(n2cc(-c3ccsc3)nn2)CC1 | -15%
COCCN1C(=O)c2ccccc2C(C(=O)NC2CCCCCC2)C12CCCC2 (stereo not drawn) | 3%
CCCNC(=O)C1COC2(CCCCC2)N1C(=O)c1cccc(Cl)c1 (stereo not drawn) | -2%
Following part:
SMILES | hNpr1 antagonist
Cc1ccc(NC(=O)Cn2c(=O)c(-c3noc(C)n3)c3n(c2=O)CCCCC3)c(C)c1 | 0%
CN1CCC(NC(=O)c2ccc3c(c2)N(S(=O)(=O)c2ccccc2F)CC3)CC1 | -2%
CC(c1cccc(-c2nc3c(cc2C(N)=O)CCC3)c1)N1CCCC1 (stereo not drawn) | -4%
O=C(c1ccccc1Br)N1CCN(c2cc(-c3cccs3)[nH]n2)CC1 | -25%
COC[C@H]1NC(=O)CC[C@H]1C(=O)NCc1ccccc1 | -8%
O=C1CC(C(=O)O)C2(CCN(c3cc(C(=O)O)c4ccccc4n3)CC2)N1 (stereo not drawn) | 2%
O=C(CN1C(=O)NC2(CCCCC2)C1=O)Nc1cc(F)ccc1F | 8%
COc1cc(SC)ccc1C(=O)N[C@H]1C[C@H]2C(=O)Nc3ccc(-c4ccc5c(c4)OCO5)cc3C(=O)N2C1 | -4%
COCCNC(=O)c1ccc(OC2CCN(Cc3cccc4c3OCO4)CC2)c(Cl)c1 | -11%
O=C(C[C@@H]1CCNC[C@@H]1Cc1cc(-c2ccccn2)on1)NCc1ccccc1 | -5%[70.6 µM]
NC(=O)CN1C(=O)CO[C@H]2CN(Cc3ccc(C(F)(F)F)cc3)C[C@H]21 | -4%[70.6 µM]
Cc1ccc(-c2cn3c(n2)CO[C@@H](CNC(=O)C2CCCC2)C3)cc1 | -12%[70.6 µM]
CC(CNC(=O)c1noc(-c2ccc3c(c2)OCO3)n1)c1ccccc1 (stereo not drawn) | -3%
COCC1CN(C2CCC2)CC12CCN(C(=O)Cc1cccc(OC)c1)CC2 (stereo not drawn) | -15%
CC(=O)N1CCCN(Cc2nnc(C(=O)N3CCC[C@@H]3C(c3ccccc3)c3ccccc3)n2-c2ccccc2)CC1 | 0%
Cc1ccc(S(=O)(=O)N2CCC(CCC(=O)NC3CCS(=O)(=O)C3)CC2)cc1 (stereo not drawn) | -2%
CC(C)c1cc(CN(C)C(=O)CN2C(=O)COc3cccnc32)on1 | 2%
C=CCCC(CN1CCCC1)Oc1ccc(-c2ccccc2)nn1 (stereo not drawn) | 4%
CC(C)n1ccnc1CN1CCc2onc(-c3ccc(Cl)cc3)c2C1 | -23%
c1cncc(-c2nc(-c3ccc(OC4CNC4)cc3)no2)c1 | 2%
O=C(Cc1ccc(N(Cc2cccc(F)c2)C(=O)c2ccco2)cc1)NCC1CCCO1 (stereo not drawn) | -2%
O=C1CC2(CCN(Cc3ccc(F)cc3)CC2)Oc2ccccc2N1c1ccccc1 | 0%
O=C1c2c(nc(COc3cccc(F)c3)n2Cc2ccccc2)NCCN1CCOc1ccccc1 | -26%
CCC(=O)N(C1CCOCC1)C1CCN(S(=O)(=O)c2ccccc2Cl)CC1 | 6%
CC(C)c1ccc(N2C(=O)N[C@@H]3CCN(C(=O)C4CCCCC4)[C@@H]3C2=O)cc1 | 12%[70.6 µM]

Compounds listed so far that have a furan ring, fused or not (two):
SMILES | hNpr1 antagonist
O=C1NCCN(Cc2ccoc2)C1CC(=O)N(CCO)Cc1ccccc1F (stereo not drawn) | 3%
O=C(Cc1ccc(N(Cc2cccc(F)c2)C(=O)c2ccco2)cc1)NCC1CCCO1 (stereo not drawn) | -2%

Part of the list above in another layout:
mol	hNpr1 antagonist
COCCNC(=O)c1ccc(OC2CCN(Cc3cccc4c3OCO4)CC2)c(Cl)c1	-11%
O=C(C[C@@H]1CCNC[C@@H]1Cc1cc(-c2ccccn2)on1)NCc1ccccc1	-5%[70.6 µM]
NC(=O)CN1C(=O)CO[C@H]2CN(Cc3ccc(C(F)(F)F)cc3)C[C@H]21	-4%[70.6 µM]
Cc1ccc(-c2cn3c(n2)CO[C@@H](CNC(=O)C2CCCC2)C3)cc1	-12%[70.6 µM]
CC(CNC(=O)c1noc(-c2ccc3c(c2)OCO3)n1)c1ccccc1 (stereo not drawn)	-3%
COCC1CN(C2CCC2)CC12CCN(C(=O)Cc1cccc(OC)c1)CC2 (stereo not drawn)	-15%

Next section
SMILES | hNpr1 antagonist
CCN1c2cc(C(=O)N3CCC(C(N)=O)CC3)ccc2C(=O)N2CCCCCC21 (stereo not drawn) | -4%
O=c1[nH]nc2n1CCCC2 | -17%
O=C(C1CN(c2ccccc2)C(=O)N1)N1CCC(Cc2ccccc2)CC1 (stereo not drawn) | -21%
Fc1ccc(-c2nnc3ccc(NCC4CC4)nn23)nc1 | 0%[70.6 µM]
CCc1cc(N(C)Cc2ccc(OC)c(OC)c2)n2nccc2n1 | -11%
CCS(=O)(=O)NCC1(COCCOC)C[C@@H](O)[C@@H](O)C1 (stereo partly drawn) | 10%[70.6 µM]
O=C([C@H]1C[C@H](Oc2ccccc2)CN1C(=O)COc1ccc(F)cc1)N1CCOCC1 | -6%
CN1C(=O)C2(CCN(Cc3ccc(C#N)cc3)C2)c2ccccc21 (stereo not drawn) | 8%[70.6 µM]
COCCN1Cc2ccc(NCc3ccccc3)nc2C(C)(C(=O)Nc2ccc(F)cc2)C1 (stereo not drawn) | -16%
CCc1ccc(C(=O)N2CCC(Oc3ncccc3C(=O)N3CCCCC3)C2)cc1 (stereo not drawn) | 2%
O=C1CC(c2ccccc2)N(Cc2ccncc2)CCCN(S(=O)(=O)c2cccc(F)c2)CCN1 (stereo not drawn) | -13%
Cc1nn(C)cc1CN1CCC(O)(c2ccccc2)[C@H](N2CCCC2)C1 (stereo partly drawn) | 1%
CCOCC(=O)N[C@H]1CN(Cc2nc(C)c(C)n2C)C[C@@H]1C(C)C | 1%
Cc1cc(C2CCCN2C(=O)c2cc(F)cc(F)c2)on1 (stereo not drawn) | 0%
CCOc1ccc(NC(=O)Cn2c(N3CCC(C)CC3)nc(C)cc2=O)cc1 | ?
c1cncc(COc2cc3c(cn2)NCCN(CC2CCCCC2)C3)c1 | -2%[70.6 µM]
COc1cccc(CC(=O)NC2CCN(c3ccc(C)cc3)C2=O)c1 (stereo not drawn) | 0%
Cc1nn(C)c(C)c1CCC(=O)N1CCC(Cc2noc(-c3ccc(F)cc3)n2)C1 (stereo not drawn) | 16µM*
COCCc1noc([C@@H]2CN(Cc3cccc(Cl)c3)C[C@H]2CO)n1 | -8%
Cc1ccsc1C(=O)N1CCC(n2cc(-c3nc(C(C)C)no3)nn2)CC1 | ?
COc1cccc(Cl)c1-c1nccc2c(=O)cc(N(C)C)oc12 | -3%[70.6 µM]
O=C(O)CC1CCCN(c2cn[nH]c(=O)c2)C1 (stereo not drawn) | -1%
N#Cc1ccc(C(=O)N2CCC3(CC2)CN(c2ccncn2)CC3CO)cc1 (stereo not drawn) | 5%
O=C(Cc1c[nH]c2ncc(-c3ccc(F)c(Cl)c3)cc12)NCc1cccnc1 | 22µM*
COc1ccc(C2(C(=O)N3CCCC(CO)CCNC(=O)CC3)CC2)cc1 (stereo not drawn) | 3%

2 records picked at random from those above:
SMILES | hNpr1 antagonist
CCOCC(=O)N[C@H]1CN(Cc2nc(C)c(C)n2C)C[C@@H]1C(C)C | 1%
COc1cccc(CC(=O)NC2CCN(c3ccc(C)cc3)C2=O)c1 (stereo not drawn) | 0%

Following part
SMILES | hNpr1 antagonist
O=C(CCC1CCN(S(=O)(=O)c2ccc(F)cc2)CC1)N1CCc2ccccc2C1 | -23%
CC(C)CCN1C(=O)CC[C@H]2CN(C(=O)Cn3ccc(=O)[nH]c3=O)CC[C@H]21 | 1%
CN1CCCC(c2n[nH]c(=O)n2-c2ccc3c(c2)OCO3)C1 (stereo not drawn) | 2%
Cc1ccc(S(=O)(=O)N2CCCN(C)c3ccccc32)cc1C | -8%
CC(=O)Nc1ccc(NC(=O)c2cc3sc(C)c(CN4CCCCC4)c3[nH]2)cc1 | -10%
Cc1ccccc1-n1cc(CN(C)C(=O)CN2C(=O)OC(C)(C)C2=O)cn1 | 6%
O=C(CC1=CCCCC1)N1CC(F)(F)C[C@H]1c1nc(C2CC2)no1 | 4%
Cc1nc([C@@H]2CN(C(=O)c3ccc(Cn4ccnc4)o3)C[C@H]2C(N)=O)n[nH]1 | 0%
Cc1ccc(CNC(=O)Cn2c(N3CCN(c4ccccc4)CC3)nc(C)cc2=O)cc1 | -11%
COc1ccc([C@@H]2CN(C(=O)CN3C(=O)CNC3=O)C[C@H]2NC(C)=O)cc1 | 0%
CC1CCN(C(=O)c2csc(N3CCN(c4ccc(Cl)cc4)CC3)n2)CC1 | ?
COc1ccc(S(=O)(=O)N[C@H]2C[C@H]3C(=O)NC[C@@H](CCC(=O)N4CCc5ccccc54)N3C2)cc1 | 1%
COc1ccc(CC(=O)N2CCC(CC(=O)NCc3ccccc3)C2)cc1 (stereo not drawn) | 0%
CN1C[C@H](NCc2cccnc2)CCC[C@@H](C(=O)NC2CC2)CC1=O | 1%[70.6 µM]
CC(C)C1C(=O)N(C)CCN1C(=O)c1cc(COc2cccc(F)c2)[nH]n1 (stereo not drawn) | 1%
CC(C)CC1=NC2(CCN(C(=O)c3ccoc3)CC2)C(=O)N1 | -6%
CC(C)NC(=O)CN1CCN(c2nccc(N3CCC(O)CC3)n2)CC1 | 2%
COc1cccc(-c2noc(Nc3cc(C)cc(C)c3)n2)c1OC | -19%
COC1C(=O)N(c2cccc(F)c2)C12CCN(C(=O)CCc1c[nH]c3ccccc13)CC2 (stereo not drawn) | -13%
COCC1CN(C2CCC2)CC12CCN(C(=O)c1cccs1)CC2 (stereo not drawn) | -15%
CC(C)N1C(=O)C2(CCCC2)C1C(=O)N1CCN(c2ncccn2)CC1 (stereo not drawn) | 3%
Cc1ccc(CNC(=O)CC2=C3CCCCC3NC2=O)cc1 (stereo not drawn) | 4%
Cc1ccc(CNC(=O)Cn2c(N3CCc4ccccc4C3)nc(C)cc2=O)cc1 | ?
COC(=O)[C@@H]1C[C@H](NC(=O)c2[nH]nc(N)c2-c2ccccc2)CN1C | -1%
CNC(=O)C1CN(c2ccccc2)C(=O)N1 (stereo not drawn) | -14%[70.6 µM]
CC1(c2noc(C3CC3)n2)CCN(C(=O)CCCc2nc3ccccc3s2)CC1 | -11%
O=C(N[C@H]1CCN2C(=O)c3cc(-c4ccccc4F)ccc3NC(=O)[C@H]12)C1CCCC1 | -3%[70.6 µM]
Cc1ccc(CNC(=O)c2ccc3c(c2)CN(CCCc2ccc(C)o2)CCO3)cc1 | -12%

2 entries from above, in markdown:
| structure | hNpr1 antagonist |
| --- | --- |
| COc1ccc(CC(=O)N2CCC(CC(=O)NCc3ccccc3)C2)cc1 (stereo not drawn) | 0% |
| CN1C[C@H](NCc2cccnc2)CCC[C@@H](C(=O)NC2CC2)CC1=O | 1%[70.6 µM] |
